Screens deposited in PubChem BioAssay by ICCB-Longwood Screening Facility, Harvard Medical School.
GIV-Gai inh: inhibitors of GIV peptide binding to Galpha-i3, primary screen, biochemical, fluorescence polarization, FITC-GIV GBA peptide, rat Galphai3; Guanine nucleotide-binding protein G(i) subunit alpha-3 (Rattus norvegicus), P08753; 90 min; hits give low values; scaled: aluminum fluoride 0%, vehicle 100%; percent of control (FP), % (no concentration beside the values); 0.42% of 210,000 active; AID 1224905, 2016;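 active means replicate mean at 85% of control or lower, very high polarization wells dropped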;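 further: wells of about 15 µL received 100 nL stock; the first replicate is given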
Target sequence (P08753 whole entry, looked up): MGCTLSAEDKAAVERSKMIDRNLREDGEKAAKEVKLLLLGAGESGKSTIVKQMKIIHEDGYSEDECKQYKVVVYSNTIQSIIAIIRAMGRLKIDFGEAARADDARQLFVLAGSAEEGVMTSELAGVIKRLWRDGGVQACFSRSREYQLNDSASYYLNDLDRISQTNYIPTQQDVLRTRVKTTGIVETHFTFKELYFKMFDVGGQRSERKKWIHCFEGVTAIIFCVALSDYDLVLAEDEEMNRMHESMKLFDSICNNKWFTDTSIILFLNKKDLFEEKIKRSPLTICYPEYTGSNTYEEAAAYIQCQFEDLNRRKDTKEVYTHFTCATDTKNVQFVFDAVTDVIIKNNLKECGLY
Sa growth 42C: S. aureus growth inhibition at 42 and 30 °C, primary screen, LtaS inhibitor project, RN4220, two temperatures; OD600, 20 h, 42 °C; hits give low values; relative growth, % (test concentration not listed); 0.53% of 170,000 active; AID 720641, 2013;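 active means growth at 42 °C up to 50% and 20 or more points under that at 30 °C, or under 10% at both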;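 further: 300 nL library stock went into each well; scaled to the means of positive and negative controls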
HCMV UL50-53 inh: inhibitors of HCMV UL50-UL53 interaction, biochemical, HTRF | HCMV UL50-UL53 nuclear egress complex (human cytomegalovirus) | normalized percent inhibition | inhibition, % (concentration not given with the values) | 0.15% of 190,000 active;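 active means both replicates at 50% or more, plus weaker picks with an unusually low signal ratio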;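 further: stock transfer was 100 nL into about 20 µL; 0% = negative control wells and 100% = wells with untagged competitor protein; inactives centre near -12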
Sa growth 42C second temp: further read-out of Sa growth 42C, marked with its call; relative growth, %; measured here: growth at 30 °C;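 optical density after 20 h as mean of two plates; 100% = untreated growth and lower means inhibition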
* marks the source's active call; other numbers are inactive results; x = not tested or not shown; & = joins results of further samples. This is a random part of the collection (roughly 0.82% active in at least one column).

The first 19 records, ahead of the listing:
SMILES | GIV-Gai inh | Sa growth 42C | Sa growth 42C second temp | HCMV UL50-53 inh
CC1CCN(C(=O)Cn2cc(SCC(=O)NCc3ccc(F)cc3)c3ccccc32)CC1 | 105 | 124 | 83 | x
COc1ccc(C)cc1NC(=O)C(OC(=O)C1=NNC(=O)CC1)c1ccccc1 (stereo not drawn) | x | 98 | 105 | 9
NS(=O)(=O)c1ccc(-n2cccc2C=C2C(=O)NC(=S)NC2=O)cc1 | 106 | 83 | 59 | -26
Cc1cc(/C(N)=N/OC(=O)c2snnc2C)no1 | 111 | 102 | 96 | -58
Cc1cc(C)cc(C(N)=Nc2cccc(C#N)c2)c1 | 103 | x | x | -14
Cc1ccnn1Cc1cc(C(=O)O)c2ccccc2n1 | 102 | 104 | 93 | -15
Cc1nc2cc(-c3ccccc3)nn2c(C)c1CCC(=O)NCCCN1CCCC1=O | 98 | 90 | 84 | -6
Cc1ccc(N(Cc2nc3nc(C)cc(C)n3n2)C(=O)c2ccccc2)cc1 | 99 | x | x | -13
Cc1ccc(CNC(=O)c2ccc(Cn3c(SCc4ccccc4F)nc4cccnc43)cc2)cc1 | 110 | 139 | 111 | x
CCCCC(=O)Nc1cc2c(cc1N1CCOCC1)n(C)c(=O)n2C | 105 | x | x | -8
CC(NC(=O)c1ccc(C23CC4CC(CC(C4)C2)C3)cc1)C(=O)O (stereo not drawn) | 104 | 80 | 74 | x
CCOC(=O)c1cccc(NC(=O)c2ccc(-c3ccccc3)s2)c1 | 106 | 106 | 87 | x
CC(C)NC(=O)c1cccc(-n2nnc3cccnc32)c1 | 112 | x | x | 3
COCCNC(=O)CCCn1c(=O)c2cc(OC)c(OC)cc2n(CC(=O)Nc2ccc(F)cc2)c1=O | 104 | 98 | 95 | 4
COC(=O)c1cc2sccc2n1Cc1nc(-c2ccc(C)cc2)oc1C | 103 | 108 | 96 | -9
CCCS(=O)(=O)n1nc(-c2ccc(OC)cc2OC)cc1N | 107 | 111 | 93 | 1
CCN(CC)S(=O)(=O)c1cc(Br)cnc1N | 102 | 105 | 82 | x
COc1ccc(CCNC(=O)CCCCCn2c(SCC(N)=O)nc3cc4c(cc3c2=O)OCO4)cc1OC | 108 | 108 | 94 | x
Nc1[nH]c(=S)ncc1S(=O)(=O)c1ccccc1 | 101&101 | 65&54 | 72&69 | -25

The listing, repeating the preview:
SMILES | GIV-Gai inh | Sa growth 42C | Sa growth 42C second temp | HCMV UL50-53 inh
CC1CCN(C(=O)Cn2cc(SCC(=O)NCc3ccc(F)cc3)c3ccccc32)CC1 | 105 | 124 | 83 | x
COc1ccc(C)cc1NC(=O)C(OC(=O)C1=NNC(=O)CC1)c1ccccc1 (stereo not drawn) | x | 98 | 105 | 9
NS(=O)(=O)c1ccc(-n2cccc2C=C2C(=O)NC(=S)NC2=O)cc1 | 106 | 83 | 59 | -26
Cc1cc(/C(N)=N/OC(=O)c2snnc2C)no1 | 111 | 102 | 96 | -58
Cc1cc(C)cc(C(N)=Nc2cccc(C#N)c2)c1 | 103 | x | x | -14
Cc1ccnn1Cc1cc(C(=O)O)c2ccccc2n1 | 102 | 104 | 93 | -15
Cc1nc2cc(-c3ccccc3)nn2c(C)c1CCC(=O)NCCCN1CCCC1=O | 98 | 90 | 84 | -6
Cc1ccc(N(Cc2nc3nc(C)cc(C)n3n2)C(=O)c2ccccc2)cc1 | 99 | x | x | -13
Cc1ccc(CNC(=O)c2ccc(Cn3c(SCc4ccccc4F)nc4cccnc43)cc2)cc1 | 110 | 139 | 111 | x
CCCCC(=O)Nc1cc2c(cc1N1CCOCC1)n(C)c(=O)n2C | 105 | x | x | -8
CC(NC(=O)c1ccc(C23CC4CC(CC(C4)C2)C3)cc1)C(=O)O (stereo not drawn) | 104 | 80 | 74 | x
CCOC(=O)c1cccc(NC(=O)c2ccc(-c3ccccc3)s2)c1 | 106 | 106 | 87 | x
CC(C)NC(=O)c1cccc(-n2nnc3cccnc32)c1 | 112 | x | x | 3
COCCNC(=O)CCCn1c(=O)c2cc(OC)c(OC)cc2n(CC(=O)Nc2ccc(F)cc2)c1=O | 104 | 98 | 95 | 4
COC(=O)c1cc2sccc2n1Cc1nc(-c2ccc(C)cc2)oc1C | 103 | 108 | 96 | -9

Continuation.
SMILES | GIV-Gai inh | Sa growth 42C | Sa growth 42C second temp | HCMV UL50-53 inh
CCCS(=O)(=O)n1nc(-c2ccc(OC)cc2OC)cc1N | 107 | 111 | 93 | 1
CCN(CC)S(=O)(=O)c1cc(Br)cnc1N | 102 | 105 | 82 | x
COc1ccc(CCNC(=O)CCCCCn2c(SCC(N)=O)nc3cc4c(cc3c2=O)OCO4)cc1OC | 108 | 108 | 94 | x
Nc1[nH]c(=S)ncc1S(=O)(=O)c1ccccc1 | 101&101 | 65&54 | 72&69 | -25
CCOc1ccc(OCC)c(NC(=O)c2ccc(-c3ccccc3)s2)c1 | 107 | 106 | 95 | 1
COC(=O)c1oc2ccccc2c1COc1ccccc1 | x | 123 | 89 | 18
NC(=O)c1ccccc1NC(=O)COc1ccc2c(c1)OCO2 | 101 | 94 | 75 | -8
O=C1N=C(N2CCOCC2)SC1=C1CCCC1 | 109 | 125 | 79 | x
COc1ccc(OC)c(C2c3c(-c4ccccc4)n[nH]c3C(=O)N2c2ccc(Cl)cc2)c1 (stereo not drawn) | 98 | x | x | -12
COc1ccc(NC(=O)C2C(=O)NC3(C)CC2c2ccccc2O3)cc1 (stereo not drawn) | 106 | 102 | 93 | 4
O=C(NCCc1ccc(Cl)cc1)c1cccnc1Oc1ccccc1 | 97 | 117 | 82 | x
COc1ccc(-n2cc(C(=O)NCCN(Cc3ccco3)C3CCCC3)c3ccccc3c2=O)cc1 | 101 | 77 | 54 | -17
Cc1ccc(CCNC(=O)c2ccc(CNS(=O)(=O)c3ccc(F)cc3)cc2)cc1 | 99 | 110 | 93 | x
Cc1ccc(S(=O)(=O)N2Cc3ccccc3C(C)CC23CCCCC3)cc1 (stereo not drawn) | 106 | 98 | 94 | 12
CCOc1ccc(CCNC(=O)c2cc3cc4ccc(OC)cc4nc3s2)cc1OCC | 112 | 113 | 89 | -4

(continued)
SMILES | GIV-Gai inh | Sa growth 42C | Sa growth 42C second temp | HCMV UL50-53 inh
CC(=O)N1CCc2cc(N=Cc3ccc(Cl)cc3)ccc21 | 222 | 101 | 82 | x
CCCCN1CCN(c2nc(-c3ccccc3)c3cc(C)ccc3n2)CC1 | 105 | 93 | 30 | x
O=C1CC(=O)CC(c2ccccc2)C1 | 104 | x | x | 13
CCN(CC)c1ccc2cc(-c3nnc(-c4cccc(Cl)c4)o3)c(=O)oc2c1 | 7.6* | 104 | 93 | -45
Cc1ccc2c(c1)C1C3CCC(C3)C1S(=O)N2 (stereo not drawn) | 108 | 109 | 95 | -11
Cc1cc(OC(C)c2nc(-c3nonc3N)no2)ccc1Cl (stereo not drawn) | x | 83 | 81 | -19
Cc1nnsc1C(=O)NCC1COc2ccccc2O1 (stereo not drawn) | 102 | 99 | 90 | 42
CC12CCC(=O)N1c1ccccc1C(=O)N2c1ccccc1 (stereo not drawn) | x | 72 | 95 | 14
Cc1ccc(C(=O)C(C)OC(=O)Cn2c(C)csc2=O)cc1 (stereo not drawn) | x | 110 | 96 | 3
Cc1ccccc1Cn1ccn(-c2ccc(F)c(F)c2)c(=O)c1=O | 96 | 114 | 97 | -24
COc1ccccc1CN(C)CCN | 103 | 112 | 88 | -25
CCC1SC(=Nc2ccccc2)N(S(=O)(=O)c2ccc(C)cc2)C1=O (stereo not drawn) | 105 | x | x | 12
COCCCNC(=O)C1CCN(Cc2cc3ccccc3n2Cc2cccc(Cl)c2)CC1 | 102 | 79 | 37 | x
COc1ccccc1OCc1nc2ccccc2n1CC(C)C | 109 | 109 | 68 | 12
CC1CCN(c2nc(-c3ccc(Br)cc3)nc3ccccc23)CC1 | 107 | 112 | 95 | x

(continued)
SMILES | GIV-Gai inh | Sa growth 42C | Sa growth 42C second temp | HCMV UL50-53 inh
NC(=O)COC(=O)C1CSC2(c3ccc(F)cc3)CCC(=O)N12 (stereo not drawn) | x | 83 | 94 | -36
O=C(CSc1nccc(-c2cccs2)n1)c1cc(-c2ccccc2)no1 | 107 | 76 | 73 | -21
CCOC(=O)c1ccc(NC(=O)c2cc(=O)[nH]c3ccccc23)cc1 | x | 106 | 79 | -13
CCOc1ccc(NC(=O)C23CC4CC(CC(O)(C4)C2)C3)cc1 | x | 87 | 93 | -15
Cc1ccc(C(=O)Nc2c(-c3ccccc3)nc3ccccn23)cc1C | 104 | 94 | 93 | -20
CN(C)c1ccc(-c2ccncc2)cc1 | 94 | 96 | 82 | -13
Cc1ccc(S(=O)(=O)NCCC(=O)N2CCC2)cc1C | x | 97 | 94 | -27
OC(C#CC(O)(c1ccccc1)c1ccccc1)c1ccc(F)cc1 (stereo not drawn) | x | 101 | 80 | -2
COc1ccc(-n2ccc(-c3ccccc3)nc2=S)cc1 | 99 | 89 | 96 | -40
C(=C\c1ccccc1)/CN1CCN(Cc2c[nH]c3ccccc23)CC1 | 105 | 105 | 102 | 4
CSc1ccc(CCNC(=O)CCn2c(=O)c3cccn3c3ccc(F)cc32)cc1 | 97 | 122 | 82 | -24
Cc1nc(NCc2ccccc2)cc(-c2ccccc2)n1 | 105 | x | x | -8
COc1ccc(NC(=O)c2cc3c([nH]c2=O)CC(C)(C)CC3=O)cc1 | 100 | x | x | -24
CN(CC(=O)N1CCCCCC1)S(=O)(=O)c1ccc2[nH]c3c(c2c1)CCCC3 | 100 | 100 | 86 | 3
CCNC(=O)C1CCN(c2cnccn2)CC1 | 108 | 101 | 96 | 10

Records above shown as hits in GIV-Gai inh:
| mol | GIV-Gai inh | Sa growth 42C second temp |
| --- | --- | --- |
| CCN(CC)c1ccc2cc(-c3nnc(-c4cccc(Cl)c4)o3)c(=O)oc2c1 | 7.6* | 93 |

Additional records follow.
SMILES | GIV-Gai inh | Sa growth 42C | Sa growth 42C second temp | HCMV UL50-53 inh
CC(NC(=O)Nc1ccccc1)C(c1ccccc1)N1CCN(C)CC1 (stereo not drawn) | 105 | 101 | 93 | 4
CCN(CC)S(=O)(=O)c1ccc(Cl)c(OC)c1 | 102 | 117 | 87 | 0
C=CCSc1n[nH]c(=O)n1-c1ccc2c(c1)OCCO2 | 103 | 101 | 97 | -1
Cc1ccc2oc(-c3cccc(NC(=O)CC(C)C)c3)nc2c1 | x | 91 | 89 | -18
C=C(C)C(=O)OCCc1ccc(O)c(-n2nc3ccccc3n2)c1 | x | 90 | 88 | -24
COc1ccc(C(CC(=O)N2CCN(c3ccccc3F)CC2)N2Cc3ccccc3C2=O)cc1OC (stereo not drawn) | 99 | 94 | 88 | -34
Cn1cnnc1SCC(=O)NC1CCCCCC1 | x | 126 | 92 | 0
CCC1CCCCN1C(=O)c1cc2cc3cc(OC)ccc3nc2s1 (stereo not drawn) | 102 | 107 | 95 | -6
CCCCCC1NC(=O)NC1CCCCCC(=O)O (stereo not drawn) | 100 | 101 | 94 | -10
Cc1ccc(NC(=O)CCc2c(C)nc3nc(C)nn3c2C)c(Cl)c1 | 104 | 90 | 87 | -34
C=C(C)NC(=S)Nc1nccs1 | x | 100 | 80 | -20
Cc1cc(C)n(C(=O)c2sccc2S(=O)(=O)N2CCN(c3ccccc3)CC2)n1 | 97 | x | x | -31
O=C(c1ccco1)N1CCN(c2cnn(-c3ccccc3)c(=O)c2Cl)CC1 | 102 | 104 | 93 | -45
CN(C)S(=O)(=O)C1CCS(=O)(=O)C1 (stereo not drawn) | 110 | 92 | 91 | -10
Cc1nc2nc(NC(=O)C(C)N3C(=O)c4ccccc4C3=O)[nH]n2c(=O)c1C (stereo not drawn) | 97 | 81 | 81 | -16

Next results follow:
SMILES | GIV-Gai inh | Sa growth 42C | Sa growth 42C second temp | HCMV UL50-53 inh
Cn1c(=O)c(C(=O)Nc2cccc(O)c2)c(O)c2ccccc21 | 97 | 120 | 69 | -10
CCSc1nn(CC(=O)Nc2ccc(OC)cc2)c(N)c1S(=O)(=O)c1ccc(OC)cc1 | 100 | x | x | -20
CC(C)OC(=O)c1nnn(-c2nonc2N)c1CSc1nc2ccccc2o1 | 107 | x | x | -11
CC(Oc1ccccc1F)c1nnc(SCc2ccc(C#N)cc2)o1 (stereo not drawn) | x | 109 | 93 | -19
CN(C)c1ccc(C(=O)N2CCCC2)cc1 | x | 104 | 87 | -14
C/C(=N\OCC(=O)Nc1ccccc1OC(F)F)c1cc2ccccc2o1 | x | 90 | 94 | -21
c1ccc(Oc2cccc(CSc3nnc(-c4ccc5c(c4)OCO5)o3)c2)cc1 | x | 101 | 107 | 10
Cc1cc(Br)ccc1NC(=O)CS(=O)(=O)c1cccc2nsnc12 | 94 | 105 | 80 | x
COc1ccc(OC)c(CNc2ncnc3onc(-c4ccc(Cl)cc4)c23)c1 | 101 | 109 | 84 | -24
CCC(C)n1c(SCc2c(F)cccc2Cl)nc2ccsc2c1=O (stereo not drawn) | 103 | 102 | 101 | x
CCOC(=O)C(C#N)C(Cc1ccccc1)c1ccco1 (stereo not drawn) | 105 | 109 | 75 | -16
